ALR inh = inhibitors of human ALR sulfhydryl oxidase, primary screen, biochemical, H2O2 detection, HRP-luminol luminescence, single point | purified ALR, DTT oxidation | AID 485317, 2010 | FAD-linked sulfhydryl oxidase ALR (Homo sapiens), P55789 | 290,000 compounds, 3.8% hits | inhibition, % (test concentration not listed);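 active = mean and each replicate at 75% or more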;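 note: stock transfer was 7.5 nL into about 7.5 µL; 0% = neutral wells and 100% = wells with inactivated enzyme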
Target sequence (P55789 whole entry, looked up): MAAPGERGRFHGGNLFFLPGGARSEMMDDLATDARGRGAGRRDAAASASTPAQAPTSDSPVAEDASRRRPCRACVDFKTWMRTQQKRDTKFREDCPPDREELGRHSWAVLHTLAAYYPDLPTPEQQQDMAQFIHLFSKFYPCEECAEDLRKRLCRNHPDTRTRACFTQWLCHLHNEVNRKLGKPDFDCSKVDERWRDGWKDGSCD
FGF22 binding = binders of human FGF22 protein, primary screen, FGF22 synaptogenesis inhibitor project, biophysical, thermal shift, single point; Fibroblast growth factor 22 (Homo sapiens), Q9HCT0; recombinant FGF22 thermal shift, SYPRO orange fluorescence; percent of sucrose octasulfate shift, DMSO zero; calls only at 9.99 µM; 340,000 compounds, 1.5% hits; AID 651658, 2012;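 active = melting point raised past a set limit in the mean and every replicate; three in four hits are not shown here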
Target sequence (Q9HCT0 whole entry, looked up): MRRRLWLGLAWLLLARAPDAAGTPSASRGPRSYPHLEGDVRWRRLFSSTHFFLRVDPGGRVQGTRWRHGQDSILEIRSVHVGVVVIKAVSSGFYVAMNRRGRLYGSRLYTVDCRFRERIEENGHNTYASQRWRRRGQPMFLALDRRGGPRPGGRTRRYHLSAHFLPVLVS
Beta2AR agonist = beta2AR agonists driving receptor internalization, primary screen, cell-based, FAP fluorogen, flow cytometry | Am2.2-beta2AR cells; reference of the scale not given here | response, % (concentration not given with the values) | 340,000 compounds, 0.43% hits;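 active = response above a set limit, near 3 SD of response in nonfluorescent compounds, cut at about 42% in these data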;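 note: stock transfer was 100 nL into about 11 µL; a reference agonist was the positive control; negative values mostly stem from fluorescent compounds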
UCH37 DUB inh = inhibitors of human UCH37 deubiquitinase, primary screen, biochemical, Ub-AMC cleavage, fluorescence; inhibition, % (concentration not given with the values); purified proteasome/UCH37; 330,000 compounds, 0.33% hits; Ubiquitin carboxyl-terminal hydrolase isozyme L5 (Homo sapiens), Q9Y5K5; AID 588478, 2011;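 active = mean of two replicates above 20%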;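 note: 0% = compound-free wells with enzyme and 100% = wells lacking proteasome; stock transfer was 100 nL into about 20 µL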
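Material: Human UCH37 enzyme supplied as purified proteasome complex | Schedule: 30 min compound-proteasome preincubation then 25 min substrate reaction, room temperature | Detection: AMC fluorescence from Ub-AMC cleavage, excitation 355 nm, emission 460 nm | Benchmarks: Wells without proteasome as full block, compound-free enzyme plus substrate as uninhibited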
HNF4A DNA FP = change in binding of human HNF4A to DNA, primary screen, biochemical, fluorescence polarization, FITC-DNA; 1 h; activity change, % at 10 µM; 360,000 compounds, 0.3% hits; AID 1224865, 2016; in the data active = activity change above about 30%, passing the limit was not always enough;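 note: controls were the assay level and a saturating level of protein; the project sought stronger binding though the title names inhibitors; some compounds called inactive have numbers as strong as hits; positive values seem to mean higher polarization but the record does not say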
Target sequence (P41235 whole entry, looked up): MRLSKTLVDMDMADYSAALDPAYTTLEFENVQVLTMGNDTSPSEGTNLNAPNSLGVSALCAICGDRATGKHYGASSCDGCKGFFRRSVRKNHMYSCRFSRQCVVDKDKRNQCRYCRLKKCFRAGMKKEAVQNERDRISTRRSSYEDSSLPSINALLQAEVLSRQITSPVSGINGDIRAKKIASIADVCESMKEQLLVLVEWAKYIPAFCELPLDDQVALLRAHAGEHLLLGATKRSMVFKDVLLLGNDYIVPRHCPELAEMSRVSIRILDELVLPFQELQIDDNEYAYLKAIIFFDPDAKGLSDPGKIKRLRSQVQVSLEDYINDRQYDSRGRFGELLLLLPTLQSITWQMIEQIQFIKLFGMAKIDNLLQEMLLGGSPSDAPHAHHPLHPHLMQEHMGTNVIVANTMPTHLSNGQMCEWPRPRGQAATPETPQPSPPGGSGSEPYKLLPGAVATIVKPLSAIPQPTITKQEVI
Ecoli rRNA inh = reduced GFP signal of wild-type E. coli, primary screen, bacterial rRNA inhibitor project, GFP/RFP fluorescence, OD600, single point. E. coli WT GFP vs humanized-ribosome RFP mutants, 24 h; stronger effect = lower value; DMSO median 0, no signal -100. GFP signal change (wild-type ribosome), % (concentration not given with the values). 350,000 compounds, 1.6% hits;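 active = significant combined selectivity score with lowered wild-type GFP, culture density cut under 30%, mutant RFP and density less affected; inactive = any of these conditions unmet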; note: one replicate is shown; some compounds called inactive have numbers as strong as hits
E coli growth = E. coli growth inhibition, primary screen, OD600; Escherichia coli growth, 23 h; stronger effect = lower value; OD600 absorbance (test concentration not listed); 330,000 compounds, 0.21% hits; AID 1053175, 2014;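 active = OD600 absorbance below the run mean of sample wells minus 3.6 SD, in any replicate, cut at about 0.56 in these data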;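 note: stock transfer was 300 nL into about 60 µL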
Ecoli rRNA inh OD600 = also measured in Ecoli rRNA inh; calls as there; OD600 change, %; measured here: OD600 growth;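 optical density of the mix in the first replicate; 0 = DMSO median and -100 = no signal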
Ecoli rRNA inh RFP = further read-out of Ecoli rRNA inh, marked with its call; RFP signal change, %; measured here: RFP humanized mutant strains;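 first replicate; 0 = DMSO median and -100 = no signal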
Active calls of the source: *; i = inactive; · = not tested or not shown. These rows are one share of the data; rates above refer to the full screens.

SMILES	ALR inh	FGF22 binding	Beta2AR agonist	UCH37 DUB inh	HNF4A DNA FP	Ecoli rRNA inh	Ecoli rRNA inh OD600	Ecoli rRNA inh RFP	E coli growth
CCN(CC)C(=O)CSC(Nc1cccc(F)c1)=C(C#N)C#N	99*	i	10	·	45*	4	-4	5.9	·
COc1cc(NC(=S)NC(=O)c2ccccc2F)ccc1NC(=O)c1ccco1	-3	i	-129	3.7	6.3	1	6	2.7	0.75
Cc1ccc2nsnc2c1NC(=O)CCc1ccccc1	-3	i	1	-0.4	1.4	13	-2	-5.4	0.69
Cc1cc(OCCCN2CCCC2)ccc1Cl	7	i	0	0.0	0.1	-4	4	-2.0	0.63
Cc1cccc2cc(CN(C(=S)NCC(C)C)C3CCCC3)c(=O)[nH]c12	-1	i	-1	-0.8	-1.1	-13	-33	-3.3	0.71
O=C(N/N=C/c1cccnc1)c1cc(-c2ccccc2Cl)nc2ccccc12	-14	i	-1	·	-1.3	-2	0	1.2	·
O=C(CCN1CCN(CCO)CC1)Nc1ccc(C2CCCC2)cc1	-13	i	2	-0.1	2.1	3	-1	2.5	0.69
Cc1ccc(NC(=O)CCNC(=O)c2ccc(Cl)cc2)cc1F	-7	·	5	15	-2.6	9	7	-1.5	0.72
CCC1=C(OC(=O)N(CC)CC)N2C(=O)OC(=NCC(=O)OC)[C@]2(Cc2ccccc2)[C@H]2C1=CC[C@H]1C(=O)N(c3ccccc3)C(=O)[C@H]12	·	i	4	2.4	-1.2	-3	0	-3.9	·
CCCCn1c(N)c(N(Cc2ccccc2OC)C(=O)CN2C(=O)NC(C)(c3ccccc3)C2=O)c(=O)[nH]c1=O (stereo unspecified)	-12	·	1	·	-0.2	3	7	-5.7	·
COc1ccc(C(C)=O)cc1COC(=O)c1cnc(Cl)c(Cl)c1	38	·	2	1.1	-3.6	8	5	0.8	0.7
CC(=O)Nc1nc2ccccc2[nH]1	-11	i	0	3.9	0.7	4	3	0.7	0.65

Rewritten in markdown: entries from further up.
| compound | ALR inh | FGF22 binding | Beta2AR agonist | UCH37 DUB inh | HNF4A DNA FP | Ecoli rRNA inh | Ecoli rRNA inh OD600 | Ecoli rRNA inh RFP | E coli growth |
| --- | --- | --- | --- | --- | --- | --- | --- | --- | --- |
| CCCCn1c(N)c(N(Cc2ccccc2OC)C(=O)CN2C(=O)NC(C)(c3ccccc3)C2=O)c(=O)[nH]c1=O (stereo unspecified) | -12 | · | 1 | · | -0.2 | 3 | 7 | -5.7 | · |
| O=C(N/N=C/c1cccnc1)c1cc(-c2ccccc2Cl)nc2ccccc12 | -14 | i | -1 | · | -1.3 | -2 | 0 | 1.2 | · |

Returning to the listing with the 2 entries that preceded the break.
SMILES	ALR inh	FGF22 binding	Beta2AR agonist	UCH37 DUB inh	HNF4A DNA FP	Ecoli rRNA inh	Ecoli rRNA inh OD600	Ecoli rRNA inh RFP	E coli growth
COc1ccc(C(C)=O)cc1COC(=O)c1cnc(Cl)c(Cl)c1	38	·	2	1.1	-3.6	8	5	0.8	0.7
CC(=O)Nc1nc2ccccc2[nH]1	-11	i	0	3.9	0.7	4	3	0.7	0.65
Brc1ccc(-c2nnc(-c3cccc(Br)c3)o2)cc1	-22	·	1	1.3	0.0	·	·	·	0.79
COc1ccccc1N1CC(C(=O)Nc2nnc(SCc3ccccn3)s2)CC1=O (stereo unspecified)	1	·	-6	4.4	-2.8	·	·	·	0.71
CCc1ccc(N=C2NC(=O)/C(=C/c3cc(OC)c(OC)c(OC)c3)S2)cc1	4	i	5	2.2	2.6	-6	0	-0.9	0.7
NNC(=O)CCc1c[nH]c2ccccc12	0	·	-2	1.4	3.9	·	·	·	0.7
CCOc1ccc(-n2c(SCC(=O)Nc3ccc(CC)cc3)nc3n[nH]c(C)c3c2=N)cc1	-4	·	0	-44	1.3	-5	6	-2.2	0.66
COc1cccc(C2/C(=C(\O)c3ccc4c(c3)OCCO4)C(=O)C(=O)N2Cc2cccnc2)c1 (stereo unspecified)	4	i	3	14	3.4	2	5	-2.3	0.66
COc1cccc(CN2CC(C(=O)NCCN3CCOC3=O)CCC2=O)c1 (stereo unspecified)	-3	i	5	1.8	6.0	0	-7	1.8	0.68
Cc1cccc(C)c1NC(=O)CNC(=O)c1ccc(NS(=O)(=O)c2ccc3[nH]c(=O)[nH]c3c2)cc1	7	·	-7	1.1	-0.6	15	12	2.0	0.75
CC(C(=O)N1CCc2ccccc21)N(C)CC(=O)Nc1ccc(F)cc1 (stereo unspecified)	·	i	0	0.3	-0.5	-7	-1	3.2	0.69
COc1ccccc1NC(=O)C(CC(=O)O)Cc1cc(C)cc(C)c1 (stereo unspecified)	·	i	·	·	0.5	2	2	-2.5	·
CCOc1ccc(/C=C2\NC(=S)NC2=O)cc1	65	i	3	5.9	-5.8	4	5	2.3	0.68
O=C(CN1CCN(c2ccccc2)CC1)N1CCN(c2ccccc2)CC1	99*	i	-5	5.0	-0.6	-2	-2	-4.1	0.64
O=c1c2ccccc2nnn1Cc1ccccc1Cl	·	i	-3	0.5	-0.5	3	6	0.5	0.7
O=C(Nc1ccc(Cl)c(S(=O)(=O)N2CCOCC2)c1)c1ccccn1	2	i	-5	0.5	2.0	-7	-6	-0.7	0.66
O=C(Cn1c(COc2ccccc2)nc2ccccc21)Nc1cc(Cl)ccc1Cl	-54	i	1	2.7	-2.0	·	·	·	0.68
COc1cc2[nH]cc(C(=O)NCc3ccccc3)c(=O)c2cc1OC	-8	i	13	2.5	-1.6	-7	-7	-4.4	0.71
CC(=O)Nc1ccc(OCC(O)Cn2ccnc2C)cc1 (stereo unspecified)	·	i	-4	-1.5	0.3	3	2	-3.1	0.69
COc1ccc(Oc2cccc(Cl)c2CNC(=O)CCC(=O)O)cc1	-4	i	5	1.4	-2.6	-10	-2	1.0	0.67
COc1ccc(C(=O)c2oc3nc(C)cc(C)c3c2N)cc1	10	·	-22	-24	-2.0	·	·	·	0.7
COCC(=O)N(Cc1cc2ccc(C)cc2[nH]c1=O)c1ccc(C)cc1C	-5	i	-11	-3.1	0.5	14	16	1.5	0.65
COc1ccccc1OCC(=O)NCc1nc(-c2ccccc2)no1	-8	i	1	-2.1	0.6	-17	-16	-0.8	0.73
CC1=CC(C)(C)Nc2ccc(OC(=O)C(Cc3ccccc3)N3C(=O)c4ccccc4C3=O)cc21 (stereo unspecified)	0	·	12	3.2	-4.9	·	·	·	0.76
COC(=O)C1=C(C)N(c2ccc(F)cc2)C(=O)C1	·	·	7	5.1	-7.7	·	·	·	0.72
O=C(O)COc1ccccc1/C=C1\SC(=S)N(NC(=O)c2ccccc2O)C1=O	63	·	-2	-0.3	8.4	-10	5	24	0.77
CC(=O)c1ccc(NC(=O)COc2ccccc2C(=O)Nc2ccc(C)cn2)cc1	-8	i	-11	-3.6	0.6	5	9	0.7	0.7
N#Cc1nc(COc2ccc(Br)cc2)oc1N1CCCC1	-13	·	-15	2.3	3.7	·	·	·	0.72
Cc1ccc(C)c(OCC(=O)N(Cc2ccccc2)c2c(N)n(Cc3ccccc3)c(=O)[nH]c2=O)c1	·	i	-2	0.7	3.4	3	-3	3.3	0.68
CCOC(=O)C1=C(COC(=O)c2ccco2)NC(=O)NC1CC (stereo unspecified)	-1	i	3	3.9	-4.2	6	7	-1.5	0.73
COC(=O)c1ccccc1CSc1nsc(C)c1C#N	-4	i	0	2.9	-1.9	3	9	2.4	0.67
Cc1cc(C)n(-c2cc(=O)n(C)c(=O)n2C)n1	-2	·	-1	1.6	-0.3	·	·	·	0.67
CN(C(=O)c1c(Cl)nc2sccn12)C1CCCCC1	-2	i	-2	-0.9	2.3	-2	-4	1.5	0.67
CN(C)CCCCOc1ccccc1-c1ccccc1	9	·	17	1.7	-2.1	·	·	·	0.67
COc1ccc(NC(=O)c2sc3nc(N4CCOCC4)c4c(c3c2N)CC(C)(C)OC4)cc1	-29	i	2	i	-6.3	8	4	-2.2	0.68
CCC(C)[C@H](NC(=O)N1CCCCCC1)C(=O)O (stereo partly specified)	-3	i	2	-2.6	-0.5	4	1	6.4	0.71
CCc1c(C)nc2ncnn2c1NCCc1ccc(OC)c(OC)c1	-3	i	-1	5.0	-1.4	-10	-9	-4.6	0.73
Cc1nc(NCc2ccco2)c2c3c(sc2n1)CCC3	6	·	7	2.3	-1.2	·	·	·	0.7
Cc1cc(S(=O)(=O)NCc2ccccc2)ccc1OCC(=O)NCc1cccnc1	0	i	3	0.5	2.0	1	-6	2.9	0.67
CCOC(=O)c1c(NC(=O)COC(=O)c2ccc(C)s2)sc2c1CC(C)(C)NC2(C)C	0	i	8	-1.3	9.5	-31	-40	9.2	0.66
CCN(C(=O)CN1C(=O)S/C(=C\c2cccc(Cl)c2)C1=O)C1CCS(=O)(=O)C1 (stereo unspecified)	-4	i	-7	7.0	0.2	-1	-6	0.3	0.69
Cc1c(NC(=O)C(C)Oc2ccccc2F)c(=O)n(-c2ccccc2)n1C (stereo unspecified)	0	i	-9	4.7	1.3	·	·	·	0.65
COc1ccc(NC(=O)CN(C)C(=O)/C=C/c2ccc(S(=O)(=O)N3CCCCCC3)cc2)cc1	-3	i	-10	·	5.0	-1	4	2.0	·
CCC(C)NC(=O)CO/N=C/c1ccccc1OC(F)F (stereo unspecified)	-4	i	0	·	-0.1	-2	-5	0.3	·
N#CC1=C(N)SC(C(=O)c2ccccc2)C1c1cccs1 (stereo unspecified)	·	·	4	1.4	1.1	·	·	·	0.68
COc1ccccc1OCC(=O)NNC(=O)CSC(=S)N1CCCC1	-1	i	-3	3.0	2.5	1	5	-4.1	0.67
Cc1ccc(NC(=O)CCc2ccc(C)o2)cc1	22	i	-5	5.3	0.4	11	13	0.4	0.69
CCCNC(=O)Cn1cnc2sc(C(=O)N3CCN(CCC)CC3)c(C)c2c1=O	·	·	-2	3.5	0.2	·	·	·	0.75
Cc1cc(C)cc(NC(=O)CSc2nnc(-c3ccccc3Br)o2)c1	3	·	2	2.1	-1.7	·	·	·	0.73
CC(CNCCCn1cnc2c(OCc3ccccc3)ncnc21)c1ccccc1 (stereo unspecified)	·	i	18	·	0.8	-17*	-12*	6.0*	·

Grouped by structure: the compounds so far containing an aryl thioether with sulfur outside any ring (4)
SMILES	ALR inh	FGF22 binding	Beta2AR agonist	UCH37 DUB inh	HNF4A DNA FP	Ecoli rRNA inh	Ecoli rRNA inh OD600	Ecoli rRNA inh RFP	E coli growth
COc1ccccc1N1CC(C(=O)Nc2nnc(SCc3ccccn3)s2)CC1=O (stereo unspecified)	1	·	-6	4.4	-2.8	·	·	·	0.71
CCOc1ccc(-n2c(SCC(=O)Nc3ccc(CC)cc3)nc3n[nH]c(C)c3c2=N)cc1	-4	·	0	-44	1.3	-5	6	-2.2	0.66
COC(=O)c1ccccc1CSc1nsc(C)c1C#N	-4	i	0	2.9	-1.9	3	9	2.4	0.67
Cc1cc(C)cc(NC(=O)CSc2nnc(-c3ccccc3Br)o2)c1	3	·	2	2.1	-1.7	·	·	·	0.73
